UUG fidelity – modulators of yeast start codon fidelity, primary screen, whole organism, S. cerevisiae, single point, plate reader; S. cerevisiae UUG-firefly luciferase reporter, luminescence/redox ratio; activity score, % at 18.7 µM; hit rate 0.13% among 350,000;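 active = replicate mean at a twofold rise or more, about +100% in these data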;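 note: firefly luciferase made from a UUG start codon reports start codon fidelity; reporter light over untreated wells divided by growth signal over untreated wells; some hits fall short of that in this replicate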
MT1-MMP act inh – blockers of MT1-MMP proenzyme processing, primary screen, HT1080 RFP-PRO-GFP cells, GFP/RFP fluorescence; AID 651647, 2012; GFP/RFP ratio fluorescence, overnight; percent of plate control window, DMSO zero; hit rate 0.061% among 360,000; Matrix metalloproteinase-14 (Homo sapiens), P50281; GFP/RFP ratio change, % at 20 µM;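 active = GFP/RFP ratio change of at least 30% with cell ATP level not reduced by more than half and red fluorescence within 50% of control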; note: strong numbers were not always called active
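system = RFP-PRO-GFP reporter HT1080 cells | dosing = 20 µM single dose, 1% DMSO | timing = overnight cell settling, then overnight compound exposure, 37 °C, 5% CO2 | read-out basis = GFP/RFP fluorescence ratio | controls = DMSO and RFP-L50D-GFP cell wells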
PABP polyA inh – PABP poly(A) RNA binding inhibitors, primary screen, biochemical, fluorescence polarization, uHTS; hit rate 1% among 290,000; AID 2014, 2009; inhibition, % at 35 µM; Polyadenylate-binding protein 1 (Homo sapiens), P11940;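 active = 50% or more with normal probe brightness, or confirmed in later tests; inconclusive = above 50% with abnormal brightness, or retests that disagree; inactive = below 50% or failed in later tests; about a fifth of its hits are not listed in these tables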;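 note: calls also rest on retests at 20 µM and on dose response follow-up; controls were probe without protein and protein plus probe with vehicle; some compounds called inactive have numbers as strong as hits; many hits fall short of the cut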
Target sequence (P11940 whole entry, looked up): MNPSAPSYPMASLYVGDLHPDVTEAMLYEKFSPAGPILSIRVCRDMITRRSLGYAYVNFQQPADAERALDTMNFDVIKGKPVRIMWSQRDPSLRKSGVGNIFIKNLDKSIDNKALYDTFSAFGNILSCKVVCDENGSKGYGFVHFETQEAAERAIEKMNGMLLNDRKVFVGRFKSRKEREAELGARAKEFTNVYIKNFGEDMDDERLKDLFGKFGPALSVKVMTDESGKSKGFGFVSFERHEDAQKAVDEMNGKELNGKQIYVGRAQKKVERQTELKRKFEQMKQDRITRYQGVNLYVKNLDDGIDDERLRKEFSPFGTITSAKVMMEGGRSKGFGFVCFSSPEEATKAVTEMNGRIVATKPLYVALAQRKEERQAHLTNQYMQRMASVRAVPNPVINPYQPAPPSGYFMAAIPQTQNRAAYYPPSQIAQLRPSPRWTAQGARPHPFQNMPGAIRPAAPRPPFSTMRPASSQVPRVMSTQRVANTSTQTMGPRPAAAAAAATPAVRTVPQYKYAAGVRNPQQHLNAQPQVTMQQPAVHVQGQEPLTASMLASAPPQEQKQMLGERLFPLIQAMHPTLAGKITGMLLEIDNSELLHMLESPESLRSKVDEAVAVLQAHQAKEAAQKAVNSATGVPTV
Rce1 inh – yeast Rce1p protease inhibitors, primary screen, biochemical, fluorescence, cell-free homogeneous; yeast membranes, quenched prenylated peptide cleavage fluorescence; hit rate 0.27% among 290,000; AID 2563, 2010; calls only;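 active = fall in fluorescence gain of 50% or more versus controls, with final raw signal at or below 3038400; inconclusive = same 50% fall but final raw signal above 3038400; inactive = fall in fluorescence gain under 50%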;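 note: plate controls were neutral control wells for no effect and wells lacking membranes for full effect; tested at 10 µM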
HIV Env fusion – inhibitors of HIV-1 Env-driven cell-cell fusion, primary screen, HeLa-JRFL effector, CEM21 target cells, luciferase. inhibition, % at 12.3 µM. AID 651610, 2012. hit rate 1.1% among 360,000;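 active = mean replicate inhibition score of at least 50 and every replicate individually at or above 50; inconclusive = only one of the two criteria met; inactive = mean below 50 and not all replicates reaching 50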;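 note: 0% = plate neutral controls and 100% = maraviroc near 300 nM; one replicate is shown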
eIF4H inh – human eIF4H binding inhibitors, primary screen, translation initiation inhibitor project, biochemical, uHTS, fluorescence polarization | eIF4H fluorescence polarization binding assay | inhibition, % at 35 µM | Eukaryotic translation initiation factor 4H (Homo sapiens), Q15056 | hit rate 0.94% among 290,000;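 active = 50% or more with normal probe brightness, or confirmed in later tests; inconclusive = above 50% with abnormal brightness, or retests that disagree; inactive = below 50% or failed in later tests; about a fifth of its hits are not listed in these tables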;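 note: calls also rest on retests at 20 µM and on dose response follow-up; 0% = protein and probe with vehicle and 100% = probe without protein; strong numbers were not always called active; many hits fall short of the cut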
CSC inhib – cancer stem cell viability inhibitors, primary screen, luminescence. inhibition, % at 7.5 µM. hit rate 1.1% among 300,000. cancer stem cell-like cells viability;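 active = mean at 75% or more and at least half the replicates too; inconclusive = mean and replicates disagree; tested in HMLE shEcad cells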;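 note: 0% = median of negative and 100% = median of positive control wells; the first replicate is given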
MT1-MMP act inh RFP – also measured in MT1-MMP act inh; calls as there; RFP signal change, %; measured here: RFP expression control read;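 0 = vehicle wells; hits needed this value within 50% of zero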
* hit, by the source's call; i = inactive; ? = inconclusive; · = no result given; + = active, no number.

The line under a structure holds: CSC inhib | PABP polyA inh | MT1-MMP act inh RFP | MT1-MMP act inh | UUG fidelity | Rce1 inh | eIF4H inh | HIV Env fusion
> O=C(COc1ccc2ccccc2c1)N/N=C/C1CC=CCC1 (configuration not stated)
 : 7 | -4 | 5 | 14 | -14 | i | -4 | ·
> Cc1cc(C)cc(N(CC(=O)NCc2ccco2)S(=O)(=O)c2c(C)noc2C)c1
 : -4 | -1 | 5 | -2 | -14 | i | -2 | 4
> CCN(CC)C(=O)N1CCC(NC(=O)c2ccccc2)CC1
 : -4 | -8 | 4 | 2 | -3 | i | 0 | 12
> NS(=O)(=O)c1ccc(CNC(=O)Cc2ccsc2)cc1
 : -13 | -5 | 1 | -5 | 0 | i | 0 | 5
> COc1ccc(S(=O)(=O)N2CCOCC2)cc1NC(=O)c1ccc(Cl)cc1
 : -9 | · | -3 | 3 | 18 | i | · | 2
> CCOC(=O)C(=CNc1ccc(O)c(C(=O)OC)c1)C(=O)OCC
 : 7 | · | 2 | 2 | -14 | i | · | -22
> CC(=O)Nc1ccc2c(c1)ncn2C1CCCCC1
 : 13 | · | 1 | -2 | -18 | i | · | -19
> CC1CCN(S(=O)(=O)c2ccc3c(c2)N(CC(=O)NCCCN(Cc2ccccc2)C(C)C)C(=O)CO3)CC1
 : -6 | 12 | 0 | -2 | 1 | i | 1 | 8
> Cc1ccc(CN2CCN(Cc3ccc(-n4cccn4)cc3)CC2CCO)cc1 (configuration not stated)
 : 35 | -5 | -1 | 5 | 8 | i | -7 | 15
> COc1ccc(Br)cc1C(=O)Nc1cccc(C)c1C
 : -31 | 17 | 0 | -1 | · | i | -2 | 7
> CC(C)(C)c1ccc(/C=N/Nc2cccc(C(=O)O)c2)cc1
 : -4 | 0 | 6 | -2 | · | i | -10 | -133
> O=[N+]([O-])C(=C1Nc2ccccc2N1)/C(Cl)=C(/Cl)Br
 : -6 | 5 | 8 | 6 | -13 | i | 17 | -11
> CCCN(CCC)CCCNC(=O)Cn1cnc2sc(C)c(S(=O)(=O)N3CCCCC3)c2c1=O
 : -36 | 2 | 5 | 0 | -13 | i | 8 | 8
> O=C(COc1ccc(Br)cc1Br)NN1C(=O)c2ccccc2C1=O
 : 0 | · | 2 | -1 | -21 | · | · | 9
> CCC(=O)Nc1cccc(C(=O)Nc2nccs2)c1
 : 12 | 3 | 3 | 2 | -13 | i | -7 | 6
> Cc1cc(S(=O)(=O)Nc2cccc(Cl)c2)c(C)s1
 : -5 | 2 | 2 | 3 | · | i | 2 | 1
> CN(C)S(=O)(=O)c1cccc(NC(=O)COC(=O)/C=C/c2ccc([N+](=O)[O-])cc2)c1
 : -2 | -9 | 6 | 3 | · | i | -6 | 31
> COc1ccc(C(CC(=O)Nc2ncccc2C)N2Cc3ccccc3C2=O)cc1 (configuration not stated)
 : · | -4 | -1 | 1 | -9 | i | 2 | -2
> Cc1ccc(CN2CCNC(=O)C2CC(=O)N2CCN(c3ncccn3)CC2)o1 (configuration not stated)
 : -10 | 5 | 3 | 0 | -20 | i | 10 | 7
> CCOc1ccc2nc(N(CCCN(C)C)C(=O)c3ccc(S(=O)(=O)N4CCc5ccccc5C4)cc3)sc2c1
 : 8 | -22 | 2 | 0 | 2 | i | -15 | -36
> CC1(C)CC(=O)C(C(c2cc([N+](=O)[O-])ccc2Cl)C2C(=O)CC(C)(C)CC2=O)C(=O)C1
 : 28 | · | -3 | 3 | -8 | i | · | 18
> CN1CCN(c2nc3c(c(=O)n(C)c(=O)n3C)n2CCSc2nnnn2-c2ccccc2)CC1
 : 11 | 6 | 0 | -2 | · | i | 6 | 5
> CNC(=S)N1CCC(c2nc3ccccc3s2)CC1
 : -5 | -7 | -1 | 1 | · | i | -1 | 2
> Nc1ncc(Br)cc1S(=O)(=O)NCCc1ccccc1
 : -6 | · | 1 | -2 | -3 | i | · | 21
> COc1ccc(C)cc1NC(=O)c1ccc([N+](=O)[O-])cc1[N+](=O)[O-]
 : 5 | 3 | 3 | 4 | -6 | i | -6 | 9
> O=C(CSc1ccccc1)Nc1ccc2c(c1)OCO2
 : · | 12 | 1 | 0 | -14 | i | -2 | -28
> CCOc1ccc(-c2cccc(NC(=O)c3ccc(Br)o3)c2)nn1
 : · | · | 3 | 2 | -26 | i | · | 1
> COc1ccc(CCNc2ccc(C(CC(N)=O)NC(=O)c3ccc(Br)cc3)cc2[N+](=O)[O-])cc1 (configuration not stated)
 : ? | -6 | -3 | 11 | -5 | i | 22 | 10
> COc1cc(-c2nc(N)n[nH]2)cc(OC)c1OC
 : -13 | -6 | 0 | 3 | -7 | · | -7 | -27
> Cc1nn(Cc2ccccc2)c(C)c1NS(=O)(=O)c1ccccc1
 : -8 | 7 | -2 | 1 | 1 | i | -5 | ·
> CC1(C)CC2(CC(c3ccccc3)Oc3cc(O)ccc32)NC(=O)N1 (configuration not stated)
 : 9 | -9 | · | · | · | i | 4 | 4
> CC(C)CCn1nnnc1CN1CCN(C(=O)c2ccco2)CC1
 : -11 | -1 | 1 | 0 | 16 | i | 8 | 13
> COc1ccc([N+](=O)[O-])cc1NC(=O)c1ccc(N(Cc2ccccc2Cl)S(C)(=O)=O)cc1
 : 1 | -6 | -5 | 0 | -11 | i | -16 | -56
> O=C(CCN1CCOCC1)N/N=C/c1cc([N+](=O)[O-])ccc1OC(F)F
 : -4 | 6 | 3 | 1 | -8 | i | 9 | -16
> O=C(CN1C(=O)C2C3C=CC(C4CC34)C2C1=O)NCc1ccco1 (configuration not stated)
 : -11 | -7 | 1 | 0 | -3 | i | 1 | -32
> COC(=O)c1ccc(-c2nc(-c3cccs3)no2)cc1
 : 44 | -3 | -4 | 3 | -54 | · | -12 | -47
> CC(C)N(Cc1nc(-c2ccc(Cl)cc2)no1)C(=O)CCC1CCCC1
 : 14 | 0 | -10 | -4 | 7 | i | -2 | 11
> CCOc1ccc(-c2nnc3ccc(SC)nn23)cc1
 : -8 | -1 | 2 | -6 | -3 | i | -10 | 16
> CCCCCCCC(=O)N/N=C(\C)c1ccc(O)cc1O
 : -5 | -5 | -3 | 0 | · | i | 1 | 14
> CC1=Nn2c(nc3sc4c(c3c2=O)CCCC4)SC1
 : -5 | 6 | -6 | 4 | · | i | -2 | -62
> Cc1ccc(NC(=O)N2CCCC2C(=O)NCc2cccs2)cc1 (configuration not stated)
 : · | 14 | 3 | -3 | -8 | i | -1 | -21
> CCc1nc2oc3cc(OC)ccc3c(=O)c2c(=O)n1-c1ccccc1
 : 5 | 2 | 1 | 0 | -16 | i | -16 | -332
> CCCCn1c(N)c(N(CCOC)C(=O)C(C)N2C(=O)c3ccccc3C2=O)c(=O)[nH]c1=O (configuration not stated)
 : -7 | · | -1 | -3 | -25 | i | · | 12
> Cc1ccccc1NC(=O)c1ccc(NC(=O)C2CCCO2)cc1 (configuration not stated)
 : -11 | -4 | 4 | 4 | -13 | i | 0 | ·
> Cc1cccc(C(=O)c2cn[nH]c2-c2ccccc2O)c1
 : -5 | -9 | -1 | 1 | -6 | i | 6 | 4
> Cn1cccc1/C=N\NC(=O)Cc1ccc(Br)c2ccccc12
 : 11 | 5 | -4 | 5 | · | i | -4 | 16
> CCC1CCCCN1C(=O)COC(=O)c1cccs1 (configuration not stated)
 : -6 | · | 1 | 0 | -6 | · | · | -12
> O=C(NCc1ccco1)c1sc(=S)n2c1[nH]c(=O)c1ccccc12
 : 38 | 23 | -6 | -4 | -22 | i | 5 | 22
> O=C(c1cccc2ccccc12)N1CCCCC1
 : -1 | -11 | 1 | 1 | -15 | i | -15 | -2
> COc1ccccc1CNC(=O)C(=O)NCCC1CCCCN1S(=O)(=O)c1ccc(C)cc1 (configuration not stated)
 : 12 | · | 0 | -3 | · | i | · | 13
> c1ccc(C(c2ccccc2)c2noc(CN3CCN(C4CCCC4)CC3)n2)cc1
 : 35 | 2 | -5 | -4 | · | i | -1 | -5
> O=C(Cn1c(=O)sc2ccccc21)NCc1ccccn1
 : 0 | -6 | 9 | 5 | -12 | i | 5 | 1
> CCOc1ccc(-c2noc(-c3csc([C@@H]4C[C@H](O)[C@@H](CO)O4)n3)n2)cc1
 : · | · | -13 | 1 | 12 | · | · | -25
> CCOC(=O)c1cccc(C2=CC(=O)C[C@H](c3ccc(OC)cc3)C2)c1
 : -11 | · | -1 | 1 | -13 | · | · | ·
> CCOC(=O)c1cnn(-c2nc(-c3ccccc3)cs2)c1C(F)(F)F
 : -6 | -12 | · | · | · | i | -8 | ·
> CCOC(=O)c1[nH]c2cc3c(cc2c1NC(=O)CN1CCN(CCO)CC1)OCO3
 : -14 | -4 | -2 | -4 | -14 | i | 0 | 8
> O=C1c2ccccc2C(=O)C1c1ccccn1
 : 10 | 7 | -7 | -5 | · | i | -6 | -36
> CCn1c(=S)sc2c(=O)n(-c3ccccc3)c(SCC(=O)NCc3ccco3)nc21
 : -4 | 1 | -8 | -3 | -14 | i | -6 | 26
> CN1CC(C(=O)O)Cc2c1ccc1ccccc21 (configuration not stated)
 : -15 | 26 | 7 | -1 | -9 | + | 10 | 10
> CCc1noc(C)c1C(=O)Nc1cccc2ncccc12
 : -8 | 6 | 8 | 2 | -16 | i | 13 | -10

(further entries)
The line under a structure holds: CSC inhib | PABP polyA inh | MT1-MMP act inh RFP | MT1-MMP act inh | UUG fidelity | Rce1 inh | eIF4H inh | HIV Env fusion
> Nn1c(SCC(=O)NCCC2=CCCCC2)nnc1C(F)(F)F
 : 1 | -2 | 3 | 0 | · | i | -3 | ·
> O=C(CCn1c(=O)[nH]c2ccccc2c1=O)N1CC=C(c2ccccc2)CC1
 : 7 | -1 | 5 | 6 | 7 | · | 4 | -9
> CCC(Sc1ccc2nnc(-c3ccc(F)cc3)n2n1)C(=O)O (configuration not stated)
 : · | 4 | 5 | 9 | -14 | i | -3 | -23
> COCCNC(=S)N/N=C/c1ccc(N2CCOCC2)cc1
 : -11 | 8 | -5 | -2 | 1 | i | 10 | 13
> CCc1nc2ccc(C(=O)N(C)CCN(C)C)cn2c1N(C)Cc1cc2ccccc2s1
 : · | · | 4 | -1 | -8 | · | · | 4
> CCS(=O)(=O)c1nnnn1-c1ccccc1S(C)(=O)=O
 : -3 | -10 | -12 | -13 | -34 | i | -5 | ·
> CCCCS(=O)(=O)N1CCCC(C(=O)NCC2CCCO2)C1 (configuration not stated)
 : -10 | 4 | 2 | 2 | -19 | i | -2 | 3
> O=C(c1ccc([N+](=O)[O-])cc1)N1CCN(Cc2ccccc2[N+](=O)[O-])CC1
 : · | 17 | -4 | 2 | · | i | 17 | -11
> O=C(CCCCn1c(=O)[nH]c2ccsc2c1=O)NCc1cccnc1
 : 2 | -6 | -2 | 3 | · | i | -7 | -5

Three compounds out of the list above, sorted by their value in MT1-MMP act inh RFP, lowest first:
SMILES,MT1-MMP act inh RFP,MT1-MMP act inh,UUG fidelity,Rce1 inh,HIV Env fusion
Cn1cccc1/C=N\NC(=O)Cc1ccc(Br)c2ccccc12,-4,5,·,i,16
CCC1CCCCN1C(=O)COC(=O)c1cccs1 (configuration not stated),1,0,-6,·,-12
O=C(COc1ccc(Br)cc1Br)NN1C(=O)c2ccccc2C1=O,2,-1,-21,·,9
